Compound activity from PubChem BioAssay.
Mtb hypoxia rep – reduces hypoxia-regulated biosensor signal in M. tuberculosis; M. tuberculosis hypoxia-regulated fluorescent reporter, fluorescence; fluorescence inhibition, % (no concentration beside the values); 300,000 compounds, 0.1% hits;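 active = 35 to 45% if threefold the growth effect, above 45% if 1.5-fold the growth effect; inactive = the rest, general growth blockers included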;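 note: wells of about 50 µL received 100 nL stock; 0% = vehicle wells and 100% = reference inhibitor wells; whole bacteria with a GFP reporter of the hypoxia response; strong numbers were not always called active; many hits fall short of the cut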
Sa RN4220 lethal – S. aureus RN4220 growth inhibition. OD600, 16 h. inhibition, % (test concentration not listed). 330,000 compounds, 0.33% hits. AID 1259311;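 active = z-score of -3 or lower and OD600 up to 0.18 on both plates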;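 note: plate controls were untreated cells for no effect and reference antibiotic for full effect; stock transfer was 100 nL into about 80 µL; one replicate is shown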
BJeLR lethal – BJeLR cell viability loss. inhibition, % (no concentration beside the values). 300,000 compounds, 0.17% hits. BJeLR (HRASV12) viability, CellTiter-Glo ATP luminescence, 48 h; reference of the scale not given here;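 active = replicate mean above 50%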;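 note: 50 nL library stock added to about 25 µL; numbers are from one replicate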
PrP 5UTR inh – suppresses PrP 5' UTR mRNA reporter expression; cell-based PrP 5' UTR mRNA reporter, plate reader; inhibition, % (no concentration beside the values); 340,000 compounds, 0.35% hits;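 active = every replicate at 50% or more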;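 note: 0 = median of the neutral control wells; tested in H4 reporter cells; numbers are from one replicate; inactives centre near -14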
Sa ugtP lethal – growth inhibition of S. aureus ugtP deletion strain. 330,000 compounds, 0.54% hits. growth inhibition, % (no concentration beside the values). AID 1259309. S. aureus RN4220 ugtP deletion, OD600 growth, 16 h; some inactives read as strong as hits;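 active = z-score under -3 and OD600 up to 0.15 on both plates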;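 note: plate controls were untreated wells for no effect and antibiotic for full effect; wells of about 80 µL received 100 nL stock; the first replicate is given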
Bead autofluor – counter-screen for toxin protease inhibitors: compound fluorescence. compound autofluorescence counterscreen, microsphere flow cytometry; stronger effect = higher value. fluorescence intensity (test concentration not listed). AID 624483. 360,000 compounds, 3.1% hits;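 active = at least 3 SD above the mean of all compounds, about 16000 in these data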;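 note: 100 nL of 1 mM stock went into each well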
Mtb hypoxia rep growth – second read-out of Mtb hypoxia rep, no call of its own (marks repeat the call); growth inhibition, %; measured here: M. tuberculosis growth (absorbance);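 0% = vehicle and 100% = reference antibiotic; read after six days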
An asterisk follows results filed as active; · = no result given.

SMILES	Mtb hypoxia rep	Mtb hypoxia rep growth	Sa RN4220 lethal	BJeLR lethal	PrP 5UTR inh	Sa ugtP lethal	Bead autofluor
Clc1ccc(/C=C/c2ncc[nH]2)c(Cl)c1	2	14	6.5	2	-81	10	3685
COc1ccc(CCNC(=O)C2CCN(c3nccc(C)n3)CC2)cc1	6	19	1.2	0	-7	6	4671
Oc1cccc(C2c3[nH]c4ccccc4c3CCN2Cc2ccoc2)c1 (configuration not stated)	-3	0	1.5	-2	-27	10	10484
O=C(Nc1nc2ccc(Cl)cc2s1)c1cccc(N2C(=O)CCC2=O)c1	7	3	-0.8	-5	-77	-12	4108
C#CCCc1cocc1C=[N+]([O-])c1ccc(C(=O)OCC)cc1	4	7	9.8	·	·	1	·
S=C(Nc1ccccc1)Nc1ccc2cn[nH]c2c1	·	·	·	1	-6	·	4182
Cc1c(NS(=O)(=O)c2cc(C(=O)N3CCCC(C)C3)ccc2Cl)c(=O)n(-c2ccccc2)n1C (configuration not stated)	1	2	3.4	·	-16	1	4322
CC(C)(C)c1ccc(O)c(N=Cc2cc3c(cc2[N+](=O)[O-])OCO3)c1	·	·	·	3	-26	·	3075
CCCCNC(=O)c1c(CSc2ccc(Cl)cc2)noc1C(=O)NCc1ccccc1	-1	12	-4.9	2	-8	-4	3963
CCCC(=NC(C)CC)C1=C(O)CC(c2ccccc2)CC1=O (configuration not stated)	6	-2	-1.9	-3	-20	13	3730
O=C(COc1ccc(Br)cc1CO)Nc1ccccc1F	·	·	3.0	-14	-53	0	3675
COc1cccc(-c2nc(CS(=O)(=O)CC(=O)NCCCN3C(C)CCCC3C)c(C)o2)c1 (configuration not stated)	5	4	-2.0	2	-21	-4	6191
Cc1ccc(OCC(=O)NC(=S)Nc2cccc(NC(=O)c3ccccc3Cl)c2)cc1	5	0	-1.3	0	-7	6	9599
O=C(COc1ccccc1[N+](=O)[O-])Nc1ccc2c(c1)OCO2	0	1	6.7	3	-26	5	4070
COc1ccccc1-c1cc(C(=O)N2CCCCC2)no1	5	1	-9.7	3	-76	-7	4319
Cc1[nH]c2ccc(F)cc2c1CCN(Cc1cccnc1)C(=S)Nc1cccc(F)c1	3	5	0.9	17	-3	-18	4305
COc1cc(/C=C(\C#N)C(=O)NCC2CCCO2)ccc1OCCC(C)C (configuration not stated)	17	14	6.7	1	-23	3	5532
COc1ccccc1NC(=O)CSc1nnc(CNC(=O)c2ccco2)o1	·	·	1.9	5	-16	3	4946
CCOC(=O)c1cc(-c2cccnc2)nn1-c1ccccn1	·	·	0.6	-2	-12	-3	3498
O=C(CCN1CCOCC1)Nc1cccc(Br)c1	6	10	5.4	-1	-17	-8	5473
CO/C=C\C=C/c1nnn(-c2ccc(Cl)cc2)n1	·	·	·	-4	-16	·	2595
C=CCn1nc2ccccc2c1OCCO	12	6	3.4	16	-8	2	4376
CCN1CCN(c2cc(C)c3cc(NC(=O)CCC(=O)Nc4ccc(OC)c(OC)c4)ccc3n2)CC1	16	-3	4.4	2	1	-1	3116
CC(C)(C)NC(=O)CSc1nc2cc(S(=O)(=O)N3CCCCC3)ccc2o1	-5	1	-3.4	·	-29	-2	5737
COC(=O)[C@@H]1C[C@@]2(O)[C@@H](O)[C@@H](O)[C@@H](O)C[C@H]2N1CC1CCCCC1	·	·	·	-10	-34	·	3067
CC(C)c1ccc(S(=O)(=O)N2CCN(C(=O)CN3C(=O)c4ccccc4C3=O)CC2)cc1	6	5	0.8	·	-15	2	3803
Cc1ccc(N/N=C/c2c(C)c(C#N)c(=O)n(C)c2O)cc1C	9	-1	2.7	7	-22	3	2805
CCOc1ccccc1N(CC(=O)Nc1ccccc1C(=O)N1CCOCC1)S(C)(=O)=O	8	6	-0.5	1	-21	9	15154
COc1cc(CN2CCC(Oc3cc(C(=O)NC4CC4)ccc3OC)CC2)cc(OC)c1	-3	6	-2.3	-4	0	-2	4397
COC(=O)c1cccc(CSC(=S)N2CCCC2)c1	-6	2	0.8	4	-22	19	4100
CN(Cc1ccccc1)C(=O)C1CCN(S(C)(=O)=O)CC1	0	2	3.1	11	6	2	4572
COc1ccc(Cl)cc1N1C(=O)/C(=C\c2sccc2C)N=C1SCC(=O)NC1CC1	-35	-13	-11	-1	-20	-39	11435
Cc1nnc(SCC(=O)N2CC(=O)Nc3ccccc32)n1-c1ccccc1	-4	-11	1.3	-1	-20	8	4050
CN(C(=O)COC(=O)c1cccc(NS(=O)(=O)c2ccc(F)c(F)c2)c1)C1CCS(=O)(=O)C1 (configuration not stated)	-1	5	11	-7	-3	1	3117
NC(=O)c1ccccc1NC(=O)N1CCOCC1	2	-5	2.1	5	8	4	·
Cc1ccc(C(=O)O)cc1N1CCCC1=O	5	4	1.2	4	-18	5	4904
CCC(O)CNc1nc(SC)nc2sc3c(c12)CCN(C)C3 (configuration not stated)	5	4	2.1	-8	-13	-1	8285
Cc1c(C)c2c(OCC(=O)NCc3cccnc3)cc3c(c2oc1=O)CCC(C)(C)O3	·	·	0.1	-3	-19	4	3958
Cc1ccccc1NC(=O)NC(N)=O	2	5	5.2	1	-7	-4	3171
O=C(Nc1cc(Cl)ccc1Cl)N1CCN(C(=O)Nc2cc(Cl)ccc2Cl)CC1	10	2	-4.3	·	-1	9	3882
O=S(=O)(c1ccc(Br)cc1)c1cnc2ccccc2n1	22	6	13	5	4	-1	2539
CC(=O)OC1C(Oc2c(O)c(C)c3c4c2C(C)CCC4C(C)CC3C=C(C)C)OCC(O)C1O (configuration not stated)	9	6	-7.8	·	·	-15	·
O=C(Cn1cnc2c(oc3ccccc32)c1=O)NCC1CCCO1 (configuration not stated)	-1	-14	-1.0	-1	-14	1	6757
COc1ccc(OC)c(CN2CCN(C(=O)c3cccc(S(=O)(=O)Nc4ccc(C)cc4)c3)CC2)c1	8	-6	2.3	-6	-27	15	4611
O=C(Cn1cc(C(F)(F)F)ccc1=O)N/N=C/c1ccc(Cl)c(Cl)c1	·	·	·	-3	-16	·	2367
CC1(C)OC2OC3C(CN)OC(c4ccccc4)OC3C2O1 (configuration not stated)	8	5	1.0	·	-27	2	3244
O=C(Nc1ccc(C2CC2(Cl)Cl)cc1)c1ccccc1Br (configuration not stated)	16	1	8.1	2	-31	20	2785
COc1ccc(CNC(=O)CCc2ccc(S(=O)(=O)N3CCCCCC3)cc2)cc1	6	4	2.3	·	-9	5	6690
CCCc1ncc(C(O)(c2ccccc2)c2ccc(C)cc2)n1C (configuration not stated)	-2	-2	-0.1	-1	-27	3	2190
Cc1ccc2c(=O)cc(C(=O)NC3CCS(=O)(=O)C3)oc2c1C (configuration not stated)	11	9	7.1	7	-16	0	5934

A different layout for part of the listing above.
The line under a structure holds: Mtb hypoxia rep	Mtb hypoxia rep growth	Sa RN4220 lethal	BJeLR lethal	PrP 5UTR inh	Sa ugtP lethal	Bead autofluor
O=C(Cn1cc(C(F)(F)F)ccc1=O)N/N=C/c1ccc(Cl)c(Cl)c1
  ·	·	·	-3	-16	·	2367
Cc1ccc2c(=O)cc(C(=O)NC3CCS(=O)(=O)C3)oc2c1C (configuration not stated)
  11	9	7.1	7	-16	0	5934

Additional records:
SMILES	Mtb hypoxia rep	Mtb hypoxia rep growth	Sa RN4220 lethal	BJeLR lethal	PrP 5UTR inh	Sa ugtP lethal	Bead autofluor
Fc1ccc2c(c1)Sc1ccc(Cl)cc1CC2N1CCN(CCC2OCCO2)CC1 (configuration not stated)	24	23	-14	-8	-17	-20	4939
CC(OC(=O)Cn1ccccc1=O)C(=O)Nc1cc(Cl)cc(Cl)c1 (configuration not stated)	4	0	4.1	·	-19	-1	4609
Cc1cccc(OCCCCCNCCO)c1	20	11	4.6	8	-10	15	6794
O=C(Cc1coc2ccc3ccccc3c12)N1CCc2ccccc21	11	6	4.4	0	-20	7	9319
COC(=O)[C@H](C)[C@@H]1C[C@@]1(C)[C@@H](NC(=O)OCc1ccccc1)c1ccccc1	·	·	·	0	1	·	2800
Cc1ccc(-n2c(Cl)c(Cl)nc(Cl)c2=O)cc1	1	1	100*	·	-79	100*	2485
Cc1ccc(Cn2c(C3CCCN3c3nc(-c4ccc(F)cc4)cs3)nc3cc(C(=O)NCCCO)ccc32)cc1 (configuration not stated)	4	7	1.4	-9	-15	-1	4417
COc1ccc(OC)c(C(=O)C2COC(=O)C2)c1 (configuration not stated)	19	17	9.1	-1	6	11	3004
COC(=O)c1c(C)[nH]c(C(=O)CSc2nnnn2-c2ccccc2)c1C	22	10	-10	-2	-21	-3	3502
CC(=O)c1ccccc1NC(=O)COC(=O)Cc1cccc(C(F)(F)F)c1	9	6	-3.0	·	-11	-1	6549
Cc1ncccc1C(=O)N1CCCC(C(=O)c2ccc3c4c(cccc24)CC3)C1 (configuration not stated)	10	4	12	3	-18	4	2635
CCn1nc(NS(=O)(=O)c2ccccc2)c2cc3ccc(C)cc3nc21	-3	6	-2.0	-5	-8	-14	5387
Cc1ccc(CNC(=O)c2sc3ccc(S(=O)(=O)N4CCCCC4)cc3c2N)cc1	5	4	-12	-7	·	-4	·
Cc1ccc(N2OC3C(=O)NC(=O)C3C2c2ccco2)cc1 (configuration not stated)	7	8	0.5	0	-4	4	5658
Cc1ccc(C(=O)NC(C)c2ccccc2)cc1Br (configuration not stated)	14	8	4.5	-9	-3	3	2504
COc1cccc(NC(=O)c2cccc(OC)c2OC)c1	·	·	2.0	3	-42	2	2787
O=C(Nc1nnc(N2CCCCCC2)s1)c1cc(-c2ccc(Br)cc2)on1	4	6	22	2	-26	2	6145
Cc1cc(=O)oc2c(C)c(OCC(=O)N3CCN(c4cccc(Cl)c4)CC3)ccc12	-7	7	-0.2	1	-4	-11	5189
COc1ccc(NC(=O)CC2Oc3ccc(C)cc3NC2=O)cc1 (configuration not stated)	·	·	3.2	-4	-12	5	6280
Cc1cccc(-c2nnc(SCC(=O)N3c4ccccc4CCc4ccccc43)n2C)c1	8	1	-6.9	-10	-20	2	2205
CCN(C(=O)COC(=O)c1cccc(S(=O)(=O)NCc2ccccc2)c1)c1ccccc1	-9	-10	1.5	·	-1	4	·
COc1ccc(CCNC(=O)CSc2nc(O)cc(=O)[nH]2)cc1OC	5	-2	3.3	-9	-12	2	4764
Cc1ccc(C(=O)C2CCN(C(=S)NCC3CCCO3)CC2)cc1 (configuration not stated)	4	4	5.3	17	-10	16	4000
COC(=O)COc1ccc(/C=C2/SC(=O)N(CC(=O)N3CCCC3)C2=O)cc1Br	10	8	1.5	7	-17	-1	3862
CC(C)(C)n1ncc2c(=O)n(Cc3c(F)cccc3Cl)cnc21	-5	15	14	-7	-12	10	3131

Gathered by group, those above containing an aryl methoxy group
SMILES	Mtb hypoxia rep	Mtb hypoxia rep growth	Sa RN4220 lethal	BJeLR lethal	PrP 5UTR inh	Sa ugtP lethal	Bead autofluor
COc1ccc(CCNC(=O)C2CCN(c3nccc(C)n3)CC2)cc1	6	19	1.2	0	-7	6	4671
COc1cccc(-c2nc(CS(=O)(=O)CC(=O)NCCCN3C(C)CCCC3C)c(C)o2)c1 (configuration not stated)	5	4	-2.0	2	-21	-4	6191
COc1ccccc1-c1cc(C(=O)N2CCCCC2)no1	5	1	-9.7	3	-76	-7	4319
COc1cc(/C=C(\C#N)C(=O)NCC2CCCO2)ccc1OCCC(C)C (configuration not stated)	17	14	6.7	1	-23	3	5532
COc1ccccc1NC(=O)CSc1nnc(CNC(=O)c2ccco2)o1	·	·	1.9	5	-16	3	4946
CCN1CCN(c2cc(C)c3cc(NC(=O)CCC(=O)Nc4ccc(OC)c(OC)c4)ccc3n2)CC1	16	-3	4.4	2	1	-1	3116
COc1cc(CN2CCC(Oc3cc(C(=O)NC4CC4)ccc3OC)CC2)cc(OC)c1	-3	6	-2.3	-4	0	-2	4397
COc1ccc(Cl)cc1N1C(=O)/C(=C\c2sccc2C)N=C1SCC(=O)NC1CC1	-35	-13	-11	-1	-20	-39	11435
COc1ccc(OC)c(CN2CCN(C(=O)c3cccc(S(=O)(=O)Nc4ccc(C)cc4)c3)CC2)c1	8	-6	2.3	-6	-27	15	4611
COc1ccc(CNC(=O)CCc2ccc(S(=O)(=O)N3CCCCCC3)cc2)cc1	6	4	2.3	·	-9	5	6690
COc1ccc(OC)c(C(=O)C2COC(=O)C2)c1 (configuration not stated)	19	17	9.1	-1	6	11	3004
COc1cccc(NC(=O)c2cccc(OC)c2OC)c1	·	·	2.0	3	-42	2	2787
COc1ccc(NC(=O)CC2Oc3ccc(C)cc3NC2=O)cc1 (configuration not stated)	·	·	3.2	-4	-12	5	6280
COc1ccc(CCNC(=O)CSc2nc(O)cc(=O)[nH]2)cc1OC	5	-2	3.3	-9	-12	2	4764
